Sfp inh: qHTS Assay for Inhibitors of Bacillus subtilis Sfp phosphopantetheinyl transferase (PPTase); 4'-phosphopantetheinyl transferase ffp (Bacillus subtilis), Q9F4F7; Biochemical Sfp PPTase activity, qHTS; Potency, µM, without a hit: max response, negative = inhibition, most hits filed as inhibitors; 310,000 tested, 3.5% active; AID 1490, 2009; active means well fitted inhibition curve with a large enough effect; inconclusive means small, poorly fitted or top-dose-only effect, or another doubt; inactive means no such curve, though single readings can be large or run the other way;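 further: the enzyme is Sfp with the accession as filed and its product quenches rhodamine fluorescence; potency means the concentration at half of the fitted maximal effect; 0% = enzyme reaction without inhibitor and -100% = no enzyme wells; top concentration of the series not given in the record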
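Sfp 15 nM + cpd, 15 min RT; start w/ rhodamine-CoA 5 uM, BHQ-2-YbbR 12.5 uM (final); 50 mM Hepes pH 7.6, 10 mM MgCl2, 0.01% NP-40, 0.01% BSA; read 525/598 nm at 0 and 30 min.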
CtBP-E1A inh: qHTS Assay for Inhibitors of the CtBP/E1A Interaction; AlphaScreen GST-E1A/His-CtBP binding, 1536-well; active compounds read low; control for the full effect not named in the record; activity change, % (test concentration not listed); 340,000 tested, 0.49% active; in the data active means activity change below about -65%; inconclusive means about -30% to -65%; inactive means above about -30%; further: on the % scale 0 is the no-effect control and ±100 the full control effect
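GST-E1A and His-tagged CtBP (125 nM each as 5X stock) were preincubated with pin-transferred compound for 2 h at 37 °C in the dark, then glutathione donor and nickel acceptor beads were added for 1 h before AlphaScreen reading.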
TRPV1 PAM: HTS Assay for Compounds that Act as Potentiators of the Vanilloid Receptor 1; TRPV1-expressing cells, Fluo-8 calcium influx, capsaicin EC20 potentiation; host cell line not named in the record; control for the full effect not named in the record; potentiation, % at 8.33 µM; 320,000 tested, 0.02% active; Transient receptor potential cation channel subfamily V member 1 (Homo sapiens), Q8NER1; active means potentiation above 80%; inconclusive means 30% to 80%; inactive means below 30%; further: 0% is about no effect
Target sequence (Q8NER1 whole entry, looked up): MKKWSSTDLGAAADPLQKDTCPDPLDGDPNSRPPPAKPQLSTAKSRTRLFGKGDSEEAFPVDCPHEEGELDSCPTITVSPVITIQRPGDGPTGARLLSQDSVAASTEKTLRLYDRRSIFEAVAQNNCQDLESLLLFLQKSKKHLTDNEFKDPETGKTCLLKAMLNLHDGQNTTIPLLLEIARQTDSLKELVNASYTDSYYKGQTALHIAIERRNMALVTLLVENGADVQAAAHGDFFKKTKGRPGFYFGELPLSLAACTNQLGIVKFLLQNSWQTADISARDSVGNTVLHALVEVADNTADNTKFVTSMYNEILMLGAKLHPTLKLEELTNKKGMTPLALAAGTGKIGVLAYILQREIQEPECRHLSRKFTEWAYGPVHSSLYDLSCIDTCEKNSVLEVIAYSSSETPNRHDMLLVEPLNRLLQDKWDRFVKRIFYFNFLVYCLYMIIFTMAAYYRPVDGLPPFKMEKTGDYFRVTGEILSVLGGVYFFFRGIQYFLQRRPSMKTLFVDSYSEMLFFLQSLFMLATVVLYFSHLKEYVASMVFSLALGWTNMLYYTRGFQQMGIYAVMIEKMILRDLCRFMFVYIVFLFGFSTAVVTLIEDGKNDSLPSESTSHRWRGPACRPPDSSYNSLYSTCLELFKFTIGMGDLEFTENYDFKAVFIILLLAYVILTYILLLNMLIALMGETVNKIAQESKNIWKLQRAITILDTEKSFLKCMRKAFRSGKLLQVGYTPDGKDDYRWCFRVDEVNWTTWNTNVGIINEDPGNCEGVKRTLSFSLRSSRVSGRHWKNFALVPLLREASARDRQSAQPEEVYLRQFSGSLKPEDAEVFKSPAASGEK
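TRPV1-expressing cells were cultured overnight at 35.5C and loaded with Fluo-8 calcium dye for 40 to 90 min at room temperature. After a 10 s baseline, compound was added and calcium influx was read kinetically for 3 min (ex 480/em 520 nm).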
Menin-MLL FL inh: qHTS Assay for Inhibitors Targeting the Menin-MLL Interaction in MLL Related Leukemias: Competition With Fluorescein Labeled MLL-derived Peptide. Fluorescence polarization, fluorescein-MLL peptide displacement from menin. FP activity change, % at 61.4 µM. 290,000 tested, under 10 active; inconclusive = falling polarisation curve, or a change in total fluorescence; inactive = total fluorescence flat and polarisation flat or rising; no compound was filed as active; the % refers to the polarisation; negative = inhibition;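 further: % of control where 0% means no effect; inhibitors lower the polarisation; unlabelled MLL peptide was the positive control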
gsp antag: qHTS for Antagonists of gsp, the Etiologic Mutation Responsible for Fibrous Dysplasia/McCune-Albright Syndrome: qHTS; gsp-mutant cells, cAMP HTRF, 30 min; control for the full effect not named in the record; Potency, µM (highest dose often 76.9 µM), for inactives: at the highest dose activity change, negative = inhibition, most hits filed as inhibitors; 340,000 tested, 0.4% active; active = falling curve of any shape with a large fitted effect; inconclusive = falling curve, mostly with a smaller effect; inactive = flat or rising curve; cell line not stated here;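 further: intracellular cAMP measured with PDE inhibitor Ro 20-1724 present during compound exposure; potency means the concentration at half of the fitted maximal effect; on the % scale 0 is the no-effect control and ±100 the full control effect; nearly all actives have a fitted effect of over 65% in size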
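Cells in G418 medium, seeded 16-24 h, 37C; buffer exchange to DPBS + 1 mM CaCl2, 0.5 mM MgCl2, 0.05% BSA; cpds in DMSO + […] (300 uM stock), 30 min 37C; HTRF cAMP detection.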
ClpP mod: qHTS Assay for Activators of ClpP | 340,000 tested, 1.9% active | Potency, µM (doses to about 57.5 µM), for the others: top-dose activity change, negative = active | purified B. subtilis ClpP, FRET peptide cleavage, 20 min; active = well fitted falling curve with a large enough effect; inconclusive = small, poorly fitted or top-dose-only effect; inactive = no such curve, though single readings can be large or run the other way; further: potency means the concentration at half of the fitted maximal effect; the source files actives as falling curves though it sought activators and does not explain the sign; nearly all actives have a fitted effect of over 65% in size; many hits overshoot -100%
Target sequence (P80244 whole entry, looked up): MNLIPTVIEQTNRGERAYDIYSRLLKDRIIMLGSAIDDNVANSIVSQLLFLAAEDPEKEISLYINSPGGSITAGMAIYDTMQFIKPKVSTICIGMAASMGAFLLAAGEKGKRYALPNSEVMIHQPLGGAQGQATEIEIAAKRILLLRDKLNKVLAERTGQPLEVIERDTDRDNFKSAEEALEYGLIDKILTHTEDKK
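Buffer: 100 mM Tris/HCl pH8, 100 mM KCl, 0.05% low protease BSA, 2.5% glycerol, 0.01% Tween-20. ClpP 10 microg/mL final; 20 min RT; delta FRET normalized to ADEP and DMSO controls.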
gsp agonist: qHTS for Agonist of gsp, the Etiologic Mutation Responsible for Fibrous Dysplasia/McCune-Albright Syndrome: qHTS | gsp mutant cells, cAMP HTRF, 30 min; control for the full effect not named in the record | Potency, µM (top dose mostly 76.9 µM), for the others: at the highest dose activation (cAMP increase), actives largely listed as activators | 340,000 tested, 0.13% active | AID 624287, 2012; active = well fitted activation curve with a large enough effect; inconclusive = small, poorly fitted or top-dose-only effect, or another doubt; inactive = no such curve, though single readings can be large or run the other way; cell line not stated here;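 further: phosphodiesterase inhibitor Ro 20-1724 added with compounds to block cAMP breakdown; potency means the concentration at half of the fitted maximal effect; nearly all actives have a fitted effect of over 60% in size; about a fifth of the inactives were tested at one dose only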
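Cells stably selected in G418 were plated at 2000/well, grown 16-24 hr, then given compounds in DMSO with the PDE inhibitor […] (300 uM solution added) for 30 min at 37C; cAMP was read by HTRF.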
Starred values were filed as active, the others as inactive; ? = inconclusive; . = not tested or not shown; [ ] = dose if it differs, or a comment.

SMILES	Sfp inh	CtBP-E1A inh	TRPV1 PAM	Menin-MLL FL inh	gsp antag	ClpP mod	gsp agonist
CN(CC(=O)Nc1nc2ccccc2s1)S(=O)(=O)c1ccc(Br)cc1	17%	15	-2	2.0	40µM*	0.4%	-10%
CCOC(=O)C1CCN(C(c2ccc(OC)c(OC)c2)c2sc3nc(C)nn3c2O)CC1 (centres undefined)	5%	3	3	2.4	-2%	0.0%	-75%[inhibitor]
CON/C=N/C(=S)Nc1ncc(C(F)(F)F)cc1Cl	11µM*	8	-5	-3.5	5%	.	-13%
Nc1c(C(=O)O)sc2nc(-c3ccccc3)cc(-c3ccc(Cl)cc3)c12	-21%	-3	-1	33[activator]	?	.	?
CCOC(=O)c1c(Cc2cccc(Cl)c2)c[nH]c1C	17%	-1	-4	1.7	-2%	.	-22%
CCCNC(=O)c1ccc(N2CCC3(CC2)CC(c2ccccc2)=NO3)c(NC(=O)Cc2ccc(F)cc2)c1	6%	1	22	0.5	?	-2.4%	.
S=C(NCc1ccncc1)Nc1ccccc1	17%	.	21	1.3	-4%	0.9%	-3%
CCCCC(=O)Nc1ccc(C(=O)N2CCN(c3ccccc3OC)CC2)cc1	9%	-2	-8	3.1	2%	0.6%	11%
CC(=O)Nc1ccc(NC(=O)C(NS(=O)(=O)c2ccc3c(c2)OCCO3)C(C)C)cc1 (centres undefined)	.	.	7	.	8%	-0.4%	2%
COCCCNS(=O)(=O)c1ccc2c(c1)CCN2C(C)=O	23%	-1	-2	-0.1	2%	-1.0%	24%
O=C(CSc1nc2c(c(=O)[nH]1)CCCC2)Nc1ccc(Cl)cc1F	3%	5	6	-1.7	-19%	0.3%	3%
Brc1ccc(N=NNc2ccccc2)cc1	-6%	-8	?	3.5	4%	.	15%
Cc1ccc(-c2nnc(Nc3ccc4c(c3)nc(C)n4C)c3ccccc23)cc1	-7%	-1	-9	-1.9	-17%	-1.3%	37%
COC(=O)C(=O)/C=C(\O)c1c(C)cc(C)cc1C	-13%	-2	-8	1.3	3%	.	2%
COc1ccc(CCNC(=O)C2CCCN2C(=O)NC2CCCCC2)cc1OC (centres undefined)	8%	-2	6	-8.0	0%	-5.5%	2%
Cc1ccc(NC(=O)COC(=O)CN2C(=O)NC3(CCCC3)C2=O)cc1F	.	1	1	.	8%	-1.9%	-13%
O=C(NNC(=S)Nc1ccccc1)c1ccccc1[N+](=O)[O-]	14%	-5	-14	-1.2	-2%	.	5%[15.4 µM]
O=C(Nc1ccccc1)N1CCC(=S)Nc2ccccc21	28%	5	9	2.2	5%	-1.6%	19%[15.4 µM]
COCCn1c(SCc2ccc(OC)c(F)c2)nnc1-c1ccncc1	10%	-7	-3	0.5	-3%	.	-50%[inhibitor]
CC(=O)c1cc(-c2ccccc2)n(CC(=O)Nc2cc(C)cc(C)c2)c1C	-16%	-2	3	-1.6	-4%	-1.1%	-66%[inhibitor]
COC(=O)CSc1nnc(CNC(=O)c2cccs2)n1-c1cc(OC)ccc1OC	3%	3	-3	0.0	8%	-1.4%	-8%
Cc1ccccc1OCC(=O)Nc1cccc2nsnc12	25%	23	-3	-3.4	2%	?	?
Cc1ccc(C)c(NS(=O)(=O)c2ccc3[nH]c(=O)oc3c2)c1	4%	7	3	3.5	-10%	.	-34%[inhibitor]
Cc1cccc(C(=O)OC(C)C(=O)Nc2ccc(S(=O)(=O)Nc3ncccn3)cc2)c1C (centres undefined)	.	-2	0	.	-14%	-2.3%	-3%
O=C(O)Cc1ccc(C(=O)c2ccc(Cl)cc2Cl)s1	3%	14	-22	6.2	-1%	.	?
Cc1nc(-c2ccc(Cl)cc2)sc1C1(C)CC(c2cccc(F)c2)=NO1 (centres undefined)	?	9	12	5.4	1%	?	.
COc1ccc(C2=Nn3c(nnc3-c3ccncc3)SC2)cc1	-2%	-21	-13	-2.6	-20%	0.1%	-3%
CCOC(=O)c1c(C)n(C)c2ccc(OC)c(NC(=O)CN3CCN(Cc4ccccc4)CC3)c12	3%	4	.	3.1	7%	-1.5%	-9%
CS(=O)(=O)c1ccc([C@@H](O)[C@@H](CF)NC(=O)C(Cl)Cl)cc1	.	10	-4	.	1%	-0.6%	.
O=C(O)CCc1nnc(SCC(=O)Nc2ccc(Br)cc2)[nH]c1=O	18%	0	5	-1.9	-7%	.	-40%[inhibitor]
Cn1c(N)c(C(=O)c2cc(-c3ccncc3)nc3ccccc23)c(=O)n(C)c1=O	3%	-14	-5	-0.3	2%	-1.1%	-2%[15.4 µM]
CCOC(=O)C1=C2NC(=O)c3ccccc3N2C(=O)C1	-22%	5	12	?	5%	.	6%[15.4 µM]
O=C(NCCC1CCCCN1S(=O)(=O)c1cccs1)C(=O)Nc1cccc(F)c1 (centres undefined)	.	16	5	.	-11%	-0.2%	-20%
COC(=O)C1CSC(C(=O)OC)N1C(=O)CN1CC(C)OC(C)C1 (centres undefined)	11%	-11	3	-1.7	1%	-0.8%	5%
O=C(NC(=S)NCCC1=CCCCC1)c1ccccc1Br	?	7	-4	8.3	1%	.	16%
Cc1csc(Sc2ccc([N+](=O)[O-])cc2C(=O)OCC(=O)NC(=O)NC(C)(C)C)n1	16%	-1	-4	-1.7	-25%	1.4%	-2%
COC(=O)c1cn(-c2cccc(C)n2)cn1	-4%	4	-5	-3.3	7%	0.8%	-6%
Cc1c(/C(O)=C2/C(=O)C(=O)N(CCN3CCOCC3)C2c2cccnc2)cnn1-c1ccccc1 (centres undefined)	9%	0	1	4.6	-7%	-1.5%	-31%[inhibitor]
Cc1ccc(CN(C)C(=O)c2cc(COc3cccc(C(F)(F)F)c3)on2)o1	20µM*	20	-2	8.3	-4%	-0.2%	?
Cc1nn(Cc2ccc(C(=O)Nc3ccccc3F)cc2)c(C)c1Cl	?	6	2	8.9	9%	-0.2%	-14%

Entries above that bear a hit mark in Sfp inh:
Compound	Sfp inh	CtBP-E1A inh	Menin-MLL FL inh	gsp agonist
CON/C=N/C(=S)Nc1ncc(C(F)(F)F)cc1Cl	11µM*	8	-3.5	-13%
Cc1ccc(CN(C)C(=O)c2cc(COc3cccc(C(F)(F)F)c3)on2)o1	20µM*	20	8.3	?

2 entries from above, with values under each structure:
Order of values: Sfp inh	CtBP-E1A inh	TRPV1 PAM	Menin-MLL FL inh	gsp antag	ClpP mod	gsp agonist
- COC(=O)c1cn(-c2cccc(C)n2)cn1
    -4%	4	-5	-3.3	7%	0.8%	-6%
- Cc1c(/C(O)=C2/C(=O)C(=O)N(CCN3CCOCC3)C2c2cccnc2)cnn1-c1ccccc1 (centres undefined)
    9%	0	1	4.6	-7%	-1.5%	-31%[inhibitor]

(continued)
SMILES	Sfp inh	CtBP-E1A inh	TRPV1 PAM	Menin-MLL FL inh	gsp antag	ClpP mod	gsp agonist
Nc1nc(-c2ccccc2)nc2sc3c(c12)CCCC3	8%	-5	2	5.2	-10%	32µM*	0%
Cc1oc(-c2cc(F)ccc2F)nc1CN(C)Cc1ccc2nccnc2c1	18%	5	7	0.2	-8%	-3.5%	-5%[15.4 µM]
CCC(c1nnc(SCC(=O)Nc2cccc(S(N)(=O)=O)c2)n1Cc1ccccc1)N(C)C (centres undefined)	7%	.	-21	1.2	0%	0.2%	2%
Cc1nnc(SCc2ccccc2Cl)n1CC1CCCO1 (centres undefined)	-3%	1	.	-1.0	9%	0.2%	-28%
Cc1ccc(S(=O)(=O)NCC(=O)NC2CC2)cc1	15%	7	-16	.	0%	-0.6%	-7%
O=C(c1cccc(F)c1)N1CCN(Cc2c[nH]c3ccccc23)CC1	?	-6	-5	2.8	13%	-15%	14%
CCOC(=O)N(Cc1ccccc1)C1CC1	.	12	.	.	13%	0.1%	-18%[15.4 µM]
CC(C)(Oc1ccc(CCNC(=O)c2ccc(-c3ccccc3)o2)cc1)C(=O)O	15%	11	-4	2.9	-6%	?	-13%
Cc1ccc2c(c1C)NC(=O)C2(O)CC(=O)c1ccc2c(c1)OCO2 (centres undefined)	10%	8	-1	-1.1	12%	-3.7%	9%
O=C(/C=C/Nc1ccc(F)cc1)c1cccs1	.	6	.	.	-4%	-1.2%	-65%[inhibitor]
Cn1cc([N+](=O)[O-])c(C(=O)N/N=C/c2ccncc2)n1	2%	5	3	.	10%	2.1%	-18%
CCN(CC)S(=O)(=O)c1ccc(S(=O)(=O)Nc2c(C)nn(C)c2C)cc1	.	1	3	.	-6%	-0.9%	-8%[15.4 µM]

Look-ups from above.
In gsp agonist, Cc1ccc(S(=O)(=O)NCC(=O)NC2CC2)cc1 has the entry -7%
In ClpP mod, CS(=O)(=O)c1ccc([C@@H](O)[C@@H](CF)NC(=O)C(Cl)Cl)cc1 has the entry -0.6%
In Sfp inh, O=C(O)Cc1ccc(C(=O)c2ccc(Cl)cc2Cl)s1 has the entry 3%
In gsp antag, Cc1csc(Sc2ccc([N+](=O)[O-])cc2C(=O)OCC(=O)NC(=O)NC(C)(C)C)n1 has the entry -25%

Bioassay records: PubChem BioAssay, National Center for Advancing Translational Sciences (NCATS)
